# NPYLR7 agonist – mosquito NPYLR7 agonism. HEK293T NPYLR7/Galpha15, GCaMP6s calcium fluorescence. activation, % at 10 µM. actives 0.15% (n = 270,000); in the data active = activation above about 40%;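 also: 0% = vehicle and 100% = reference agonist at the receptor; some compounds past the cut are filed as inactive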
# NPYLR7 agonist max-min – recorded beside NPYLR7 agonist, whose call it bears; activation, %; measured here: Max-Min RFU normalised activation; some inactives read as strong as hits;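 span of the calcium signal over five minutes; 0% = vehicle and 100% = native peptide agonist; compound fluorescence can raise it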
# Active calls of the source: *; & = joins results of further samples. An excerpt, so the mix of outcomes need not match the whole.
# Preview, 2 compounds:
canonical_smiles	NPYLR7 agonist	NPYLR7 agonist max-min
CC(C)COCC(O)CN(Cc1cccc(F)c1)CC1CC(c2ccc(F)cc2)=NO1 (stereo not given)	-4.3	-3.7
C=CCN1CCc2cc(OC)c(OC)cc2C1CNS(=O)(=O)c1ccc(Cl)cc1 (stereo not given)	7.3	17.7

# This part in full, from the first entry:
canonical_smiles	NPYLR7 agonist	NPYLR7 agonist max-min
CC(C)COCC(O)CN(Cc1cccc(F)c1)CC1CC(c2ccc(F)cc2)=NO1 (stereo not given)	-4.3	-3.7
C=CCN1CCc2cc(OC)c(OC)cc2C1CNS(=O)(=O)c1ccc(Cl)cc1 (stereo not given)	7.3	17.7
CCn1nc(CO)c2c1CCN(Cc1cc3n(n1)CCCNC3)C2	-0.5	27.9
c1ccc(CN2CCC(CNC3CCOCC3)C2)cc1 (stereo not given)	0.4	-3.8
CCCc1ccc(S(=O)(=O)N2CCCN(Cc3cc(=O)c(OCc4ccc(SC)cc4)co3)CC2)cc1	20.5	14.6
CCOc1ccc(OCCCOc2ccc(I)cc2)cc1	-1.3	24.5
Cn1c(=O)c2c(NC(=O)c3ccccc3Cl)ccnc2n(C)c1=O	12.5	5.7
CCOC(=O)C1CCN(C(=O)c2ccc(-n3nc(-c4cccc(C)c4)cc3N)cc2)CC1	-3.9	-6.1
CCN1CCN(c2c(CN(C(=O)C3C[C@H]3c3ccccc3)C3CC3)c(C)nn2-c2cccc(F)c2)CC1 (stereo not given in full)	20.7	23.4
CC(C)c1n[nH]c2c1CNCC2	-15.7	-20.4
CC(c1ccc(-c2[nH]cnc2-c2ccccc2)cc1)N(C)C (stereo not given)	0.5	-4.7
COc1cc(OC)c(C2c3c(n[nH]c3-c3ccc4c(c3)OCO4)OC(=N)C2C#N)cc1OC (stereo not given)	0.0	-2.8
CCN1CCN(c2nc(C)nc(Oc3ccccc3)c2N)CC1	21.7	10.1
O=C(O)c1ccc(Cl)cc1N=Cc1nc(-c2ccc(Br)cc2)oc1O	-2.4	-8.0
Cc1ccc(Oc2ccc(NC(=O)C3CC3)cc2)cc1	-16.6	-22.2
Cc1ccn2c(C(=O)Nc3cnc4n3CCCC4)nnc2n1	-3.4	-10.2
Cc1nc(-c2ccccc2)sc1C(=O)OC1CC(C)OC1=O (stereo not given)	-1.1	-1.6
CCCc1cnc2c(c1SCC(=O)NC(C)C)c(=O)n(C)c(=O)n2C	5.6	5.8
COCCN(CCOC)C(=O)CCNc1ccc(-n2ccnc2)cc1[N+](=O)[O-]	-10.6	-15.0
Cc1cccc(N(C)c2cc(Nc3ccc(CC(=O)NCCCn4ccnc4)cc3)ncn2)c1	-4.2	-6.3
CCc1nc2ccc(C(=O)NCCC(C)C)cn2c1N(CCC(C)C)CCN(C)C	-2.3	-7.5
O=C(NCCNc1nc(C2CC2)nc2cc(Cl)ccc12)c1ccc(F)cc1	7.1	8.9
C=CCN(Cc1nccn1Cc1ccccc1C(F)(F)F)C(=O)c1ccc(Cl)cc1	-1.5	5.9
COc1ccccc1OCC1CN(C(=O)COc2cccc(C)c2C)CCO1 (stereo not given)	32.7	32.6
O=C(Nc1ccc2c(c1)OCCO2)c1ccc2c(=O)n3c(nc2c1)CCC3	-9.2	-10.1
CCOC(=O)c1cc(-c2ccc(C)c(C)c2)n(-c2ccc(C(=O)NCc3ccccc3F)cc2)n1	-5.3	-15.9
CC(C)(C)c1cc(NCCCn2ccnc2)n2ncc(-c3ccccc3Cl)c2n1	0.2	8.8
c1ccc(-c2nnc(N3CCOCC3)c3ccccc23)cc1	2.6	7.2
COC(=O)c1cc(S(=O)(=O)N(C)c2ccc(S(C)(=O)=O)cc2)ccc1O	-3.2	-4.5
CS(=O)(=O)CCC(NC(=O)OCc1ccccc1)C(=O)N1CCCCCC1 (stereo not given)	13.2	9.5
Cc1ccc2c(c1)c(N=NC(=O)COc1cccc(Br)c1)c(O)n2C	-5.8	-10.5
C=CCNC(=O)CN1CN(c2ccccc2)C2(CCN(C(=O)CCCCC)CC2)C1=O	5.0	-4.0
O=C(c1ccc(CSc2nc(N3CCN(c4cccc(C(F)(F)F)c4)CC3)cc(C(F)(F)F)n2)o1)N1CCCC1	4.7	15.1
O=[N+]([O-])c1ccc2[nH]c(O)c(N=NCc3ccccc3)c2c1	11.1	4.7
Cc1ccc(N2CCn3c2nc2c3c(=O)n(C)c(=O)n2C)cc1	4.6	0.3
O=S1(=O)C=CC(N(c2ccccc2)S(=O)(=O)c2ccccc2)C1 (stereo not given)	6.6	1.4
CN1CCC(N(C)CC(C)(C)NS(=O)(=O)c2ccc(Cl)cc2)CC1	4.0	-0.4
CC(C#N)OC(=O)c1ccc(CNC(=O)OC(C)(C)C)cc1 (stereo not given)	-0.3	4.7
COc1ccc(-c2csc(C(O)c3cccc(Cl)c3)n2)cn1 (stereo not given)	5.1	0.5
CCNC(=O)C1CCN(Cc2nc(-c3ccccc3OCC)oc2C)C1 (stereo not given)	24.8	19.2
COCCCn1cc(C(=O)N2CCN(CCc3ccccc3)CC2)c2nn(-c3ccccc3)c(=O)c-2c1	-1.2	-1.6
CS(=O)(=O)N(CC(=O)NCCc1ccccc1)c1ccc(Br)cc1Cl	5.4	3.6
Cc1onc(-c2ccccc2)c1C(=O)n1cccn1	-9.1	-14.8
Cc1cc(C)cc(NC(=O)CC(=O)N(C)C(C)c2ccon2)c1 (stereo not given)	-0.1	-2.6
O=C(Cn1cnc2c(nnn2Cc2ccc(F)cc2)c1=O)N1CCCCC1	-1.0	2.7
Cc1cc(C)cc(NC(=O)NCCNc2ccc(Nc3ccccn3)nn2)c1	25.5	14.5
O=C(Nc1ccc(N2CCN(C(=O)c3cccnc3Cl)CC2)nc1)c1ccco1	2.7	-5.3
CCc1ccc(C2C(C#N)=C(C)NC3=C2C(=O)CCC3)cc1 (stereo not given)	3.6	3.5

# Quoted from the listing:
# NPYLR7 agonist max-min result of O=C(Cn1cnc2c(nnn2Cc2ccc(F)cc2)c1=O)N1CCCCC1 stands at 2.7
# NPYLR7 agonist max-min result of COc1ccc(-c2csc(C(O)c3cccc(Cl)c3)n2)cn1 (stereo not given) stands at 0.5
# NPYLR7 agonist result of Cc1onc(-c2ccccc2)c1C(=O)n1cccn1 stands at -9.1
# NPYLR7 agonist result of CC(C#N)OC(=O)c1ccc(CNC(=O)OC(C)(C)C)cc1 (stereo not given) stands at -0.3

# (further entries)
canonical_smiles	NPYLR7 agonist	NPYLR7 agonist max-min
COc1cccc(Cn2cccc2CN(Cc2ccccc2)C(=O)CN(CC(C)C)C(=O)NCc2ccccc2)c1	-11.9	-11.9
Cc1ccc(C(C)NC(=O)Cn2nnn(-c3ccccc3)c2=O)cc1C (stereo not given)	8.1	12.2
CCOc1ccccc1-c1cc(-c2nnc(SCc3ccccc3Cl)n2C)c2ccc(Oc3ccccc3)cc2n1	-6.1	-9.8
COc1ccc(-c2noc(CN3CCC(O)(c4cccc(C(F)(F)F)c4)CC3)n2)cc1	14.2&11.3	4.0&2.2
COc1cccc2c1OC/C(=C\c1scnc1C)C2=O	9.8	6.4
COc1cc(CN(C)Cc2sccc2C)cc(F)c1O	2.7	-4.8
CC(=O)NC(c1ccc(F)c(F)c1)c1nc(-c2cnn(C)c2)cs1 (stereo not given)	3.8	-1.5
CCc1cnc2c(c1SCC(N)=O)c(=O)n(C)c(=O)n2C	-5.8	-2.0
CCC1=NC2(CCN(C(=O)C(CC)N3Cc4ccccc4C3=O)CC2)C(=O)N1 (stereo not given)	11.8	8.9
O=C(NCC1CCCO1)[C@@]1(OCc2cccc(C(F)(F)F)c2)CC(OCc2cccc(F)c2F)[C@H](O)[C@H](O)C1 (stereo not given in full)	2.2	14.5
CC(C)c1ccc(CN2CCCC3(CCN(S(C)(=O)=O)C3)C2)cc1 (stereo not given)	12.0	8.3
O=C(CNCc1ccccc1Cn1cccn1)Nc1cnccn1	-1.1	-2.3

# Arranged by heavy-atom count (lowest first): 3 of the compounds above
canonical_smiles	NPYLR7 agonist	NPYLR7 agonist max-min
CCN1CCN(c2nc(C)nc(Oc3ccccc3)c2N)CC1	21.7	10.1
CC(C)COCC(O)CN(Cc1cccc(F)c1)CC1CC(c2ccc(F)cc2)=NO1 (stereo not given)	-4.3	-3.7
CCOC(=O)c1cc(-c2ccc(C)c(C)c2)n(-c2ccc(C(=O)NCc3ccccc3F)cc2)n1	-5.3	-15.9

# The listing continues.
canonical_smiles	NPYLR7 agonist	NPYLR7 agonist max-min
CC(=O)Oc1ccccc1C(=O)N1CCN(C(C)c2ccccc2)CC1 (stereo not given)	4.7	4.6
Cc1cc(C)c2c(n1)nn1c(NCc3ccccn3)cc(C)nc21	-0.1	9.7
CCOC(=O)c1cnc(-c2ccc(C(F)(F)F)cc2)nc1NCc1cc(F)cc(F)c1	13.3	8.9
Cc1nc(-c2cccc(NC(=O)N(CC3CCOC3)C3CC3)c2)oc1C (stereo not given)	0.7	-2.4
CC1(C(=O)O)CCC(C(=O)Nc2ccccc2N)C1(C)C (stereo not given)	-0.3	-3.2
O=C(NC1CCCC1)c1ccc(N2CCC(NCc3ccc(Cl)s3)CC2)cc1	15.8	-2.4
CCN(CC)CCC(C#N)(C(=O)c1ccccn1)c1ccccc1 (stereo not given)	-2.2	-3.8
COc1ccnc(Cn2nc(C3CCNCC3)n(-c3ccccc3)c2=O)c1	-2.3	1.3
Cc1ccc(C(C)C)c(OCC(=O)N=Nc2c(O)n(C)c3ccccc23)c1	0.3	-5.7
CCCCN(C)C(=O)Nc1ccc(C#N)cc1	15.5	10.6
Cn1c(=O)c2c(nc(CN3CCCCC3)n2Cc2ccc(Cl)cc2)n(C)c1=O	10.0	5.5
CCOC(=O)N1CCC(NC(=O)C2CCC(=O)N(C3CCCCCC3)C2)CC1 (stereo not given)	-1.9	-6.1
CCn1nc(C(=O)N2CCN(Cc3ccncc3)CC2)c2c1CCN(C(=O)c1sc(C)nc1C)C2	15.4	-1.1
Cn1c(=O)c2c(C(=O)O)cc(-c3ccc(F)cc3)nc2n(C)c1=O	6.9	3.5
COc1ccc(Cc2nnc(SCc3ccccc3Cl)n(N)c2=O)cc1	5.2	2.5
COCC(=O)N1CCCN(Cc2nn(C)c3cccc(Cl)c23)CC1	20.3	3.1
CCOC(=O)CCC(=O)NCC1Cc2cc(C(C)(C)C)ccc2O1 (stereo not given)	21.8	16.9
O=C(c1ccc(F)c(F)c1)C1CCN(C(=O)c2cn[nH]n2)CC1	3.2	3.7
CC(=O)c1ccc(NC(=O)c2cccc(S(=O)(=O)N3CCCCC3)c2)cc1	1.4	-3.8
COc1c(F)ccc(C(=O)N2CCc3c(nc(C)nc3N3CCCC3)C2)c1F	-6.3	-11.4
COc1cc(C(=O)N(CC(=O)NCC(=O)Nc2ccc(C)cc2)Cc2ccc(F)cc2)cc(OC)c1OC	-7.8	-2.3
CC(C)C(NC(=O)c1ccccc1F)C(=O)N1CC=C(c2c[nH]c3ccccc23)CC1 (stereo not given)	-9.1	-8.0
CCCn1nc(C(=O)OC(C)C#N)ccc1=O (stereo not given)	-0.5	13.2
O=C(NCc1nc(Cc2ccccc2)no1)c1ccc2c(c1)CCCC2	20.0	21.9
COc1ccc(/C=C2\NC(=S)NC2=O)cc1Oc1ccc([N+](=O)[O-])cc1[N+](=O)[O-]	1.9	-11.2
O=S(=O)(CCc1ccccc1)NCCc1csc2nc(-c3cccc(F)c3)nn12	-6.6	-6.8
COc1ccccc1C1c2cccn2CCCN1Cc1cccc([N+](=O)[O-])c1 (stereo not given)	-1.5	3.1
Cc1ccc(NC(=O)CSc2nc3c(c(=O)n2Cc2ccccc2)SC(C)C3)c(C)c1 (stereo not given)	-1.6	-4.8
CCc1c(C(=O)NCCc2ccc(N3CCCCC3)cc2)[nH]c2ccc(Cl)cc12	-6.2	-13.7
CCc1nc2ccc(C(=O)NCCCn3ccnc3)cn2c1N(C)C(=O)C1CCCCC1	-2.7	-8.0
COc1ccc(-c2noc(CN3CCC(OCc4ccccn4)CC3)n2)c(OC)c1OC	2.4	-1.9
O=C1Cc2cc(S(=O)(=O)N(Cc3ccco3)c3ccccc3)c(Cl)cc2N1	-6.9	-8.6
CN1CCCN(CCCNS(C)(=O)=O)c2cc(F)ccc21	7.4	3.1
COc1cc(C)c(S(=O)(=O)NCCn2nc(-c3ccccc3)ccc2=O)cc1C	3.1	1.3
COCCCN(CC(=O)N(CCc1c[nH]c2ccccc12)Cc1ccc(F)cc1)C(=O)Nc1cccc(Br)c1	18.6	21.1
Cc1nc(SCc2ccc(C(=O)NCc3ccco3)cc2)nc(N(C)Cc2ccccc2)c1C	0.1	6.7
CCn1nnc2c(N3CCN(C(=O)C(C)(C)C)CC3)ncnc21	0.3	12.5
CCn1nnc2c(SCc3ccc(C)cc3)ncnc21	0.8	23.4
O=C(CCC(=O)N1CCC(n2nccc2NC(=O)C2CCOC2)CC1)c1ccccc1 (stereo not given)	-4.7	-4.2
O=C(NCc1cn2ccsc2n1)C1CC2(CCNCC2)CN1 (stereo not given)	14.4	2.6
CCOc1ccc(-c2nnc3ccc(SCC(=O)Nc4nc(C)cs4)nn23)cc1	2.1	12.7
C[C@](N)(Cc1ccc(O)cc1)C(=O)O	2.2&-8.1	-2.4&-8.7
CC(NC(=O)c1ccc(=O)n(C)c1)c1ccccc1-n1cccn1 (stereo not given)	9.1	8.0
Cc1ccc(/C=N\NC(=O)CSc2nc3ccccc3s2)cc1	-13.0	-18.0
COc1cccc(CNC(=O)c2nnn(Cc3ccccc3)c2N)c1	0.4	7.6
CCOC(=O)CCC(=O)N1CCC(Cc2ccc3c(c2)OCO3)CC1	0.7	9.9
O=C1NCC2(CCCN(C(=O)c3cn[nH]c3-c3cccs3)C2)O1 (stereo not given)	7.1	6.1
COCCN1CC(C(=O)NCc2cccc(C)n2)CCC1=O (stereo not given)	7.9	8.8
Cc1[nH]n(-c2nc(-c3ccc(Br)cc3)cs2)c(=O)c1N=Nc1cccc(C(F)(F)F)c1	9.1	18.9

# Screening results (PubChem BioAssay)
